HSV augment = HSV replication enhancement | HSV replication augmentation in cells, fold increase | maximum fold increase | hit rate 0.005% among 220,000;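 active = peak rise of 1.5-fold or more in the series; tested in PC3 cells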;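 note: first round at 10 µM; read as green reporter fluorescence; hits show the peak of a series up to 25 µM; 1 = signal of infected wells without compound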
Insulin prom inh = TRM-6 insulin promoter activity inhibition; TRM-6 cells (human fetal islet line), insulin promoter-eGFP reporter, imaging; reporter expression induced with tamoxifen; inhibition, % at 2 µM; hit rate 0.9% among 130,000;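 active = inhibition above the mean plus 3 SD, with well images judged a real hit on visual review, cut at about 60% in these data, passing the limit was not always enough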
PKD1 inh = inhibitors of human PKD1 kinase; Q15139; hit rate 0.056% among 200,000; PKD1 kinase fluorescence polarization assay; inhibition, %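 (about 10 µM by stock and volumes)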;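 active = inhibition of 50% or more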;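 note: controls were vehicle for no effect and a reference inhibitor for full effect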
GALR2 ag = activates the human galanin receptor 2 | GALR2-expressing cells, agonist activation read-out | activation, %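 (tested at 5 µM)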 | hit rate 0.48% among 140,000 | AID 803;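 active = above mean plus 3 SD of all compounds, about 5% in these data, not always enough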;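 note: 0% = vehicle buffer wells and 100% = reference agonist at full effect; tested in CHO reporter cells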
RGS16-Gao = RGS16-Galphao interaction regulator (human); hit rate 0.38% among 220,000; bead-based flow cytometry RGS16-Galphao binding, fluorescence; actives lie on both sides; binding response (% of control), % at 10 µM;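 active = below 25% or above 175%, edge rows of some plates excepted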;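 note: Galphao activated by GDP with aluminum fluoride before binding; 100% = wells without compound and 0% = beads without RGS; some results beyond the cut were filed as inactive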
Target sequence (O15492 whole entry, looked up): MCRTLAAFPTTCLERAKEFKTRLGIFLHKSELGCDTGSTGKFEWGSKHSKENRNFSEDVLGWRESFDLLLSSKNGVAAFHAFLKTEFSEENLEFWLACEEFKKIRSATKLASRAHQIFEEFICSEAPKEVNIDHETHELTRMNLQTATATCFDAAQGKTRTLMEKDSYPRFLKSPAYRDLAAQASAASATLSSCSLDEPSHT
Target sequence (P09471 whole entry, looked up): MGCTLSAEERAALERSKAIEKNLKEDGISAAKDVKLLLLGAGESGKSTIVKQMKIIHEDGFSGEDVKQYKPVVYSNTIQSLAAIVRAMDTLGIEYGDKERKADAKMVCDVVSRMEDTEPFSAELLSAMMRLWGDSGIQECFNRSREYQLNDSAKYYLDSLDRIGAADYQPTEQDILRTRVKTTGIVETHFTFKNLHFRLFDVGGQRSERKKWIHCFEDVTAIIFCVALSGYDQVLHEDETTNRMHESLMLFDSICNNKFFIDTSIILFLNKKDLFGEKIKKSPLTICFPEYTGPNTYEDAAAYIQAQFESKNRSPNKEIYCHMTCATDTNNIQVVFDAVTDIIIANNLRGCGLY
Insulin prom inh cell count = recorded beside Insulin prom inh, whose call it bears; normalized cell count, %; measured here: cell count, toxicity; reference of the scale not given here;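 cells exposed to compound for 48 h; stained nuclei by imaging scaled within each plate; lower means fewer cells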
HSV augment primary fold = also measured in HSV augment; calls as there; fold increase; compound at 10 µM; measured here: primary screen fold increase 10 uM; tested in PC3 cells;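 GFP signal in the first replicate; 1 = infected wells without compound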
An asterisk follows results filed as active; i = inactive; x = no result given. Outcome played no part in choosing rows; any-hit rate near 1.3%.

SMILES	HSV augment	HSV augment primary fold	Insulin prom inh	Insulin prom inh cell count	PKD1 inh	GALR2 ag	RGS16-Gao
CC(=O)Nc1ccc(NC(=O)CSc2ccc(C(F)(F)F)cc2[N+](=O)[O-])cc1	i	0.9	12	89	11	-0.8	99
CCCOn1nnnc1-c1ccccc1	i	1.1	-32	49	-4	-2.3	99
CCOc1[nH]n(-c2ccccc2)c(=O)c1C=Nc1ccc(Cl)cc1	i	1	-23	108	-1	-1.4	97
CCc1cc(C(=O)N2CCc3c([nH]c4ccccc34)C2c2ccc(OC)cc2F)no1 (centres undefined)	i	0.8	-38	48	-1	x	109
COc1cc([N+](=O)[O-])ccc1NC(=O)CC(C)C	i	0.86	0	115	-6	-0.8	42
CC(=O)Nc1ccc(S(=O)(=O)N2CCN(Cc3ccccc3[N+](=O)[O-])CC2)cc1	i	0.91	21	147	-3	x	112
COc1cc(/C=N/NC(=O)c2cc(-c3ccccc3)sc2N)cc(OC)c1OC	i	0.83	x	x	x	x	97
Cc1cccc(Nc2nc3c(c(=O)n(C)c(=O)n3C)n2Cc2ccccc2)c1	i	1	60	25	-7	-0.2	103
C=CCSc1nc(N)c2c(C)c(C)sc2n1	i	0.8	x	x	8	-0.4	115
COc1ccc(OC)c(C(=O)c2coc3ccc(OC(C)=O)cc23)c1	i	0.94	46	123	1	-0.2	113
O=C(NCCc1ccncc1)C12CC3CC(CC(C3)C1)C2	i	0.98	39	72	-15	-2.1	100
O=C(Nc1ccc(Br)cn1)c1cccc(-c2cc3ccccc3oc2=O)c1	i	0.77	x	x	-1	-1.7	102
Cc1cc(OCC(=O)Nc2ccc3oc(-c4ccncc4)nc3c2)ccc1Cl	i	0.73	0	124	-8	0.6	103
CC(C)OC(=O)CSc1nnc(CNc2nc(-c3ccccc3)cs2)n1C	i	0.89	-36	154	-4	-2.6	101
Cc1ccc(-n2cc(CN(C)Cc3nccn3C)c(-c3ccc(F)cc3)n2)cc1	i	0.95	8	84	-1	x	94
O=C(O)c1cccnc1Oc1ccccc1	x	x	-33	81	-1	-3.7	104
Cc1cc(Br)cn2cc(C(=O)O)nc12	i	1.1	-27	131	2	x	99
COc1ccc(OCC(=O)Nn2c(-c3cccc(OC)c3)nc3ccccc3c2=O)cc1	i	0.96	-60	159	-7	-0.8	102
N#C/C(C(=O)N1CCOCC1)=C1/SC=C(c2ccccc2)N1c1ccccc1	x	x	40	152	-6	-1.1	x
CCn1c(CCNC(=O)c2ccc(Cl)c(Cl)c2)nnc1SCCOc1ccc(OC)cc1	i	0.9	x	x	-11	-2.1	101

Part of the list above, reformatted:
COc1ccc(OC)c(C(=O)c2coc3ccc(OC(C)=O)cc23)c1
  HSV augment: i	HSV augment primary fold: 0.94	Insulin prom inh: 46	Insulin prom inh cell count: 123	PKD1 inh: 1	GALR2 ag: -0.2	RGS16-Gao: 113

O=C(NCCc1ccncc1)C12CC3CC(CC(C3)C1)C2
  HSV augment: i	HSV augment primary fold: 0.98	Insulin prom inh: 39	Insulin prom inh cell count: 72	PKD1 inh: -15	GALR2 ag: -2.1	RGS16-Gao: 100

O=C(Nc1ccc(Br)cn1)c1cccc(-c2cc3ccccc3oc2=O)c1
  HSV augment: i	HSV augment primary fold: 0.77	Insulin prom inh: x	Insulin prom inh cell count: x	PKD1 inh: -1	GALR2 ag: -1.7	RGS16-Gao: 102

Cc1cc(OCC(=O)Nc2ccc3oc(-c4ccncc4)nc3c2)ccc1Cl
  HSV augment: i	HSV augment primary fold: 0.73	Insulin prom inh: 0	Insulin prom inh cell count: 124	PKD1 inh: -8	GALR2 ag: 0.6	RGS16-Gao: 103

The listing picks up with the two entries that preceded the break.
SMILES	HSV augment	HSV augment primary fold	Insulin prom inh	Insulin prom inh cell count	PKD1 inh	GALR2 ag	RGS16-Gao
N#C/C(C(=O)N1CCOCC1)=C1/SC=C(c2ccccc2)N1c1ccccc1	x	x	40	152	-6	-1.1	x
CCn1c(CCNC(=O)c2ccc(Cl)c(Cl)c2)nnc1SCCOc1ccc(OC)cc1	i	0.9	x	x	-11	-2.1	101
O=c1cc(N2CCc3ccccc32)[nH]c(=O)n1-c1ccccc1	i	0.98	i	64	3	-3.0	99
Cc1ccc(-n2c(CCc3ccccc3)nnc2SCC(=O)NCc2ccccc2)cc1C	i	0.99	x	x	-1	0.0	101
COc1ccc(OC)c(NC(=O)c2ccc(CSc3ncccn3)cc2)c1	i	1	x	x	-4	x	102
O=C(Nc1nccs1)c1cc2c(s1)-c1ccccc1OC2	x	x	x	x	8	7.8	103
C/C(=N\NC(=O)COc1ccc(C#N)cc1)c1ccccc1OC(F)F	i	1	x	x	-3	0.7	58
CN(C)S(=O)(=O)c1ccc(C(=O)Nc2ccc(F)cc2F)cc1	i	0.64	x	x	-15	-1.6	102
O=C(COC(=O)c1ccc(Cl)c(S(=O)(=O)N2CCCCCC2)c1)Nc1ccccc1	i	0.93	27	101	-5	-0.2	91
CC(NS(=O)(=O)c1ccc(Cl)cc1)C(=O)NCCC1=CCCCC1 (centres undefined)	i	0.89	x	x	-6	x	104
CCCS(=O)(=O)C(=C1Nc2ccccc2N1)S(=O)(=O)CCC	i	0.96	24	117	-1	0.7	102
O=C(Nc1ccc2c(c1)OCCO2)c1cccnc1Oc1ccccc1	i	1.1	x	x	x	x	95
CCCCCCC1/C(=N/O)CCC1C(=O)OC (centres undefined)	i	0.97	63	114	-7	-0.6	126
Cn1nc(C(F)(F)F)c(-c2ccccc2)c1NC(=O)CCC(=O)O	i	1.3	x	x	x	x	99
COc1cccc(C(=O)N(Cc2cccs2)C2CCS(=O)(=O)C2)c1 (centres undefined)	i	0.99	x	x	x	x	97
CSc1nsc(SC)c1NC(=O)OC1CCCCC1	i	0.86	-480	33	-10	-1.5	102
S=c1c2c(nc3nc[nH]n13)CCC2	i	1.1	x	x	x	x	107
Cc1cc(Cl)ccc1OCC(=O)Nc1ccccc1NS(=O)(=O)c1cccs1	i	0.86	x	x	x	x	103
O=C(NN=C1CCCCCCCCCCC1)c1ccncc1	i	0.83	29	99	-1	x	106
CC(/C=N/n1c(-c2cccnc2)n[nH]c1=S)=C\c1ccccc1	i	0.87	17	107	-2	0.1	88
CN(/N=C/c1ccc(Cl)cc1Cl)c1ncc(Cl)cc1C(F)(F)F	i	0.99	x	x	x	x	91
N#CCSc1nc(Nc2ccc3c(c2)OCO3)c2ccccc2n1	i	0.89	-36	150	7	0.6	99
CC(=O)c1cn(CC(=O)Nc2ccccc2)c2ccccc12	i	1	x	x	-5	-1.1	152
COc1ccc(NC(=O)Cn2nnc(-c3ccccc3F)n2)cc1Cl	i	0.98	-67	95	-6	-2.6	101
Cc1cc(-c2ccco2)n2c(nc3ccccc32)c1C#N	x	x	-8	81	-1	-0.1	94

Structures listed so far that have bromine (two):
SMILES	HSV augment	HSV augment primary fold	Insulin prom inh	Insulin prom inh cell count	PKD1 inh	GALR2 ag	RGS16-Gao
O=C(Nc1ccc(Br)cn1)c1cccc(-c2cc3ccccc3oc2=O)c1	i	0.77	x	x	-1	-1.7	102
Cc1cc(Br)cn2cc(C(=O)O)nc12	i	1.1	-27	131	2	x	99

Five structures out of the list, sorted by length of the SMILES, ascending:
SMILES	HSV augment	HSV augment primary fold	Insulin prom inh	Insulin prom inh cell count	PKD1 inh	GALR2 ag	RGS16-Gao
N#CCSc1nc(Nc2ccc3c(c2)OCO3)c2ccccc2n1	i	0.89	-36	150	7	0.6	99
COc1ccc(NC(=O)Cn2nnc(-c3ccccc3F)n2)cc1Cl	i	0.98	-67	95	-6	-2.6	101
CCCS(=O)(=O)C(=C1Nc2ccccc2N1)S(=O)(=O)CCC	i	0.96	24	117	-1	0.7	102
CC(/C=N/n1c(-c2cccnc2)n[nH]c1=S)=C\c1ccccc1	i	0.87	17	107	-2	0.1	88
Cc1cc(Cl)ccc1OCC(=O)Nc1ccccc1NS(=O)(=O)c1cccs1	i	0.86	x	x	x	x	103

Screening data (PubChem BioAssay)
